VACV mCherry inh: qHTS for Stage-Specific Inhibitors of Vaccinia Orthopoxvirus: mCherry Reporter Primary qHTS; AID 720579, 2013; 310,000 tested, 0.63% active; Potency, µM (series often up to 36.5 µM), for the others: at the top dose activity change, negative = inhibition, actives largely listed as inhibitors; Vaccinia virus mCherry reporter infection, fluorescence; about a quarter of the inactives have no number; active = well fitted inhibition curve with a large enough effect; inconclusive = small, poorly fitted or top-dose-only effect; inactive = no such curve, though single readings can be large or run the other way; tested in A549 cells; also: nearly all actives have a fitted effect of over 35% in size; inactives centre near -10
VACV Venus inh: qHTS for Stage-Specific Inhibitors of Vaccinia Orthopoxvirus: Venus Reporter Primary qHTS | Vaccinia virus Venus reporter expression, fluorescence | Potency, µM (titrated, usually from 36.5 µM), inactives show at the top dose activity change, negative = inhibition, actives largely listed as inhibitors | 330,000 tested, 0.46% active | AID 720580, 2013; active means well fitted inhibition curve with a large enough effect; inconclusive means small, poorly fitted or top-dose-only effect; inactive means no such curve, though single readings can be large or run the other way; tested in A549 cells; also: nearly all actives have a fitted effect of over 30% in size; inactives centre near -10
An asterisk follows results filed as active; i = inactive; ? = inconclusive; / = not tested or not shown; & = joins results of further samples; [ ] = dose if it differs, or a comment. % is scaled to controls: 0 for no effect and ±100 for the full control effect; potency is read from the fitted curve at half-maximal effect. Rows were taken by chance; overall some 0.86% were active at least once.

Sample of the layout (three entries):
item	Structure	VACV mCherry inh	VACV Venus inh
1	Cc1ccc(NC(=O)C(CC(C)C)N2Cc3ccccc3C2=O)cc1F (stereo not drawn)	-20%	-19%
2	CCCN1CCN(C(=O)CCCNC(=O)Cn2cnc3sc(C)c(C)c3c2=O)CC1	-6%	-2%
3	CCOC(=O)C1(Cc2ccc(Cl)cc2)CCN(CCCn2cccn2)CC1	i	-17%

Results, from the start:
item	Structure	VACV mCherry inh	VACV Venus inh
1	Cc1ccc(NC(=O)C(CC(C)C)N2Cc3ccccc3C2=O)cc1F (stereo not drawn)	-20%	-19%
2	CCCN1CCN(C(=O)CCCNC(=O)Cn2cnc3sc(C)c(C)c3c2=O)CC1	-6%	-2%
3	CCOC(=O)C1(Cc2ccc(Cl)cc2)CCN(CCCn2cccn2)CC1	i	-17%
4	CC(=O)N1CC=C2C(C#N)=C(N)C(C#N)(C#N)C(C)C2C1 (stereo not drawn)	-4%	-3%
5	COc1cccc(/C=N/NC(=O)c2c(C)nc3ccc(Cl)cn23)c1O	3.2µM*	?
6	CC(C)(C)C(=O)CSc1nc2ccsc2c(=O)n1Cc1ccccc1Cl	-9%	-13%
7	O=C(NN=Cc1cc(Br)c(O)c(Br)c1)c1ccccc1NS(=O)(=O)c1cccs1	i	-13%
8	Cc1ccccc1OCc1cc(=O)n2c(-c3ccccc3)csc2n1	-11%	-10%
9	CC1(C)CC2(CCO1)OC(=O)CC2C(=O)Nc1ccc(Br)cc1 (stereo not drawn)	-16%	-5%
10	O=C(NCc1ccncc1)c1cnn(-c2ncc3c(n2)-c2ccccc2CC3)c1C1CC1	i	-8%
11	Cc1cccc(C)c1OC(=O)CSc1nnc(-c2ccccc2)o1	i	-13%
12	COc1ccc(CCNC(=O)CN2C(=O)COc3ccc(C)cc32)cc1OC	4%	4%
13	CN(C1CCCCC1)S(=O)(=O)c1ccc(SCC(N)=O)nc1	-2%	-7%
14	O=C(O)c1cc2c(ccc3ccccc32)o1	i	-7%
15	O=C(/C=C/c1ccc(Br)cc1)NC(=O)c1ccccc1O	?	?
16	Cc1nc2ccn(Cc3cccnc3)c(=O)c2cc1C(=O)NCc1ccccc1	-16%	-17%
17	Cn1cc(C(=O)Nc2ccc(F)c(F)c2)cn1	/	-7%
18	O=C(c1ccccc1)c1cc2cc(Cl)ccc2[nH]1	-10%	-2%
19	CC(C)(C)S(=O)N1Cc2cc(C(=O)NCC(F)(F)F)nc(-c3cccc(-c4cccc(F)c4)c3)c2[C@H]1CCO (stereo partly drawn)	20%	-6%
20	CC(C)(C)OC(=O)N1CCN(c2nc(-c3cccs3)nc3ccccc23)CC1	i	-13%
21	CS(=O)(=O)c1ccc(C(=O)NC(Cc2ccccc2)c2ccccc2)cc1 (stereo not drawn)	-22%	-8%
22	O=C(COc1ccc([N+](=O)[O-])cc1)Nc1nc(-c2ccccn2)cs1	5.6µM*	?
23	CN(C)c1cccc(C(=O)OCC(=O)N2CCc3ccccc3C2)c1	-8%	3%
24	CCOc1cc(/C=C/C(=O)OCC(=O)NCc2ccco2)cc(Cl)c1OC	i	-13%

Screen by screen, from the results shown.
Nos. 19–23 in VACV mCherry inh read 20%, i, -22%, 5.6µM*, -8%
Nos. 19–23 in VACV Venus inh read -6%, -13%, -8%, ?, 3%

(continued)
item	Structure	VACV mCherry inh	VACV Venus inh
25	COC(=O)CSc1nc(N2CCOCC2)c2c(c1C#N)CC(C)(C)OC2	-10%	-9%
26	CC(C)Cc1nn2c(=O)cc(COC(=O)c3ccccc3NC(=O)c3ccccc3)nc2s1	-14%	-8%
27	O=C(O)CSc1nccc2ccccc12	-2%	-23%
28	Cc1ccc(NC(=O)C(Cc2ccccc2)NS(=O)(=O)c2ccc3c(c2)c(=O)n(C)c(=O)n3C)cc1 (stereo not drawn)	-11%	-14%
29	Cc1ccc(CNC(=O)c2ccc3c(c2)NC(=O)C(CS(=O)(=O)Cc2cccc(F)c2)N3)cc1 (stereo not drawn)	-13%	0%
30	NC(CCc1ccccc1)c1csc(NC(=O)NCC2CCCCC2)n1 (stereo not drawn)	-16%	-11%
31	CC1CCN(C(=O)c2[nH]c(C(F)(F)F)nc2-c2ccccc2)CC1	39%[activator]	-3%
32	O=C(COc1ccccc1)Nc1cccc2nsnc12	-8%	2%
33	Cn1c(=O)c2c(ncn2CC(=O)N2CCN(c3cccc(Cl)c3)CC2)n(C)c1=O	i	-11%
34	N#Cc1ccccc1NC(=O)CSc1nnc(N)s1	0%	-4%
35	COc1ccc(C(=O)OCc2csc(C)n2)c(O)c1	-20%	-8%
36	CC(OC(=O)CSc1ccc([N+](=O)[O-])cc1)C(=O)NCc1ccco1 (stereo not drawn)	-12%	-11%
37	COc1ccc(-n2ccnc(NCc3cccs3)c2=O)cc1OC	-14%	-3%
38	CCCCn1nnnc1C1(C)CCC(=O)N1CCc1ccc(OC)c(OC)c1 (stereo not drawn)	2%	0%
39	CCOC(=O)CNC(=O)c1ccc(SCC)cc1	i	-12%
40	CCOC(=O)C1CCCN(C(=O)c2cc3c(OC)c(OC)c(OC)cc3[nH]2)C1 (stereo not drawn)	i	-16%
41	CC(=O)c1ccc(N2C(=NC(=O)C3CCCO3)SC3CS(=O)(=O)CC32)cc1 (stereo not drawn)	-15%	-6%
42	O=C(C[n+]1cc(-c2ccc(F)cc2)n2c1CCC2)OCc1ccccc1	-5%	0%
43	Cc1cc(C)c(OCC(=O)OCC(=O)N2CCCc3ccccc32)c(C)c1	-3%	0%
44	COC(=O)[C@H](CCSC)NC(=O)[C@@H](Cc1cnc[nH]1)NC(=O)OCc1ccccc1	-2%	-5%
45	CCCn1c(C)cc(C(=O)CSc2nc3nc(C)cc(C)n3n2)c1C	0%	-13%
46	Cc1ccccc1NC(=O)C(=O)Nc1ccccc1C	-8%	-2%
47	O=C1N/C(=C/c2ccc(N3CCOCC3)o2)C(=O)N1c1ccccc1	-19%	-2%
48	O=C(NNc1cc(Br)c(O)c(Br)c1)c1ccccc1	?	-10%
49	O=C1CCN(Cc2ccccc2)CCN1CCO	i	-13%&-6%
50	Cc1ccc(NC(=O)c2cc3ccccn3n2)cc1F	-10%	4%
51	Cc1ccsc1CN(C(=O)c1ccc(OCC(C)C)cc1)C1CCS(=O)(=O)C1 (stereo not drawn)	-3%	-3%
52	O=C(C[C@@H]1C/C=C\C[C@@H](Cc2ccc(F)cc2)C(=O)OC[C@@H]2CCCN2C1=O)NCCO	i	0%
53	Cc1cc(=O)oc2n[nH]c(-c3ccccc3)c12	i	-4%
54	COc1ccccc1C/C(N)=N/OC(=O)COc1ccccc1C	-10%	1%
55	CC(=O)N1CCC(C(=O)N2c3ccccc3N=C(c3ccc4c(c3)OCO4)C2C(=O)Nc2c(C)cccc2C)CC1 (stereo not drawn)	?	-16%
56	CCc1nnc(NC(=O)c2cc(-c3ccco3)nc3ccccc23)s1	-3%	1%
57	Cc1cc(C(=O)Nc2ccccc2-c2nc(CNC(=O)c3cc4ccccc4cn3)c(C)o2)c(C)o1	-8%	7%
58	CCCCCCC(c1c(C)n(C)n(-c2ccccc2)c1=O)c1c(C)n(C)n(-c2ccccc2)c1=O	-27%	-19%
59	O=C(CCc1nnc(CCCCc2ccccc2)o1)NCCc1cccnc1	-5%	-12%
60	Cn1c(CC(=O)Nc2ccccc2)nnc1SCC(=O)NC1=NCCS1	-14%	-5%

Full records, looked up by structure:
Shown for COc1ccccc1C/C(N)=N/OC(=O)COc1ccccc1C = VACV mCherry inh: -10%; VACV Venus inh: 1%
Shown for Cc1ccc(NC(=O)c2cc3ccccn3n2)cc1F = VACV mCherry inh: -10%; VACV Venus inh: 4%

(cont.)
item	Structure	VACV mCherry inh	VACV Venus inh
61	Cc1ccc2[nH]c(=O)c(CN(CCCO)C(C)c3nnnn3Cc3ccco3)cc2c1 (stereo not drawn)	-2%	-8%
62	O=C(COC(=O)c1ccc(Br)cc1)NC1CCCC1	-16%	-1%
63	Cc1cc(C)c(Cn2c(=O)n(CCC(=O)NCc3ccc4c(c3)OCO4)c(=O)c3ccccc32)c(C)c1	0%	1%
64	CCOC(=O)C1CCCN(C(=O)CC(c2ccccc2)c2ccccc2)C1 (stereo not drawn)	-3%[1.46 µM]	-13%
65	Cc1cc(C=O)c(C)n1-c1cccc(C(=O)O)c1	-18%	-4%
66	Cc1ccc(CNC(=O)c2ccc3c(c2)NC(=O)C(CS(=O)(=O)Cc2cccc(C)c2)N3)cc1 (stereo not drawn)	?	?
67	COc1cc(-c2nc3ccc4ccccc4c3c3c2CCC3)cc(OC)c1OC	?	?
68	COc1cc(OC)cc(C(C(=O)NC2CCCCC2)N(C(=O)c2ccno2)c2ccccc2)c1 (stereo not drawn)	i	-14%
69	CCN(CC)C(=O)[C@H]1C[C@H](CC(=O)NC(C)(C)C)C(=O)N2CCc3c([nH]c4cc(CCC(=O)N(C)C)ccc34)[C@]12C	-22%	?
70	COc1ccc(NC(=O)c2cc3cc(C)ccc3n2C)cc1	3%	-8%
71	C=CCOc1ccc(CN(C)C(=O)CNC(=O)c2ccc(-c3ccccc3)cc2)cc1	i	-30%
72	COc1ccccc1CC1(C)C(=O)Nc2ccc(OC(F)(F)F)cc21 (stereo not drawn)	i	?
73	O=C(O)C1OC1(c1ccccc1Cl)c1ccccc1Cl (stereo not drawn)	-19%	-3%
74	Oc1ccc2ccccc2c1C=Nc1ccc(Cl)cn1	-7%	22%
75	O=C(CSc1c2c(nc3ccc(Cl)cc13)CCCC2)N1CCCCC1	-4%	-10%
76	CCN(CCCNC(=O)C1CCCN(S(=O)(=O)c2cnc[nH]2)C1)c1ccccc1 (stereo not drawn)	-14%&37%	-6%&-13%
77	COc1ccc(C2=CC(=O)C[C@H](c3ccc(OC)c(OC)c3)C2)cn1	-14%	-14%
78	COc1ccc(NC(=O)N2CCCc3ccccc32)c(OC)c1	?	-14%
79	C/C(=N\NC(=O)c1ccc(Cn2cc([N+](=O)[O-])cn2)o1)c1cccc(NC(=O)c2cccnc2)c1	i	-14%
80	CCN1CCN(C(=O)/C(=C/c2cccs2)NC(=O)c2ccc(C)c(C)c2)CC1	-21%	-21%
81	Cc1cc(OC(C)C(=O)NCc2ccccn2)c2c(C)c(Cc3ccccc3)c(=O)oc2c1 (stereo not drawn)	i	-7%
82	Cc1cc(C(C)(C)C)c(O)c(C(C)(C)C)c1	-17%&-6%	-24%&-15%
83	Cc1ccc(S(=O)(=O)Cn2nnnc2CN2CCN(C(=O)c3ccco3)CC2)cc1	i	-14%
84	CCOc1ccc(CCNC(=O)C2CCC(=O)N2C2CCCCC2)cc1OCC (stereo not drawn)	i	-1%
85	CCS(=O)(=O)Nc1ccc(C2=NN(C(=O)c3ccco3)C(c3cccc(F)c3)C2)cc1 (stereo not drawn)	-29%	?
86	CCC1C(=O)NCCN1Cc1ccc2c(c1)CN(Cc1cc(OC)c3c(c1)OCO3)CCO2 (stereo not drawn)	-16%	-19%
87	CCc1nn2c(-c3ccco3)ccnc2c1-c1ccc(F)cc1	-5%	-6%
88	COc1ccccc1CNc1nc2ccc(Cl)cc2n2cnnc12	-14%	-10%
89	CN(C(=O)Nc1cccc([N+](=O)[O-])c1)c1ccccc1	0%	-7%
90	CN(C)c1ncnc2c1ncn2[C@H]1CN(C2CCCC2)C[C@@H](CO)O1	4%	6%
91	COc1ccc(C(=O)NC(=S)N2CC(C)OC(C)C2)cc1OC (stereo not drawn)	-4%	-14%
92	COc1ccc(-c2cc3ccccc3oc2=O)cc1NC(=O)c1ccc(Br)o1	-16%	-14%
93	Cc1cccc(-c2c3c(=O)n(C)c(=O)n(C)c3cn2CCO)c1	/	-4%
94	O=C(O)c1ccc(Cl)c(NCc2ccncc2)c1	i	-6%
95	CCOC(=O)c1cc(-c2cccc([N+](=O)[O-])c2)on1	i	-15%
96	Cc1nn2c(N3CCCC3)c3c(nc2c1-c1ccccc1)CCC3	i	0%
97	N#CCN1CCN(CC(=O)Nc2cccc3ccccc23)CC1	-13%	-16%
98	Cc1cccc(NC(=O)COc2ccc3oc4c(c3c2)CCCC4)c1	-2%	-3%
99	O=C(CN1C(=O)NC2(CCCCC2)C1=O)Nc1ccc(N2CCCCC2)cc1	?	-15%
100	CCOC(=O)/C(C#N)=C/c1ccc(OCC(=O)Nc2ccccc2)c(OC)c1	-10%	-9%
101	COc1ccc(N(C(=O)c2ccc(Cl)cc2)S(=O)(=O)c2ccc(C)cc2)cc1	-22%	-13%
102	CSc1ccc(CNC(=O)C2(C)CCCN2C)cc1 (stereo not drawn)	2%	-1%
103	O=C(Nc1ccc(NC(=O)c2ccccc2Cl)nc1)c1ccco1	-5%	-20%
104	CC(=O)c1c(C)oc2ccc(N(C(C)=O)S(=O)(=O)c3cccc4cccnc34)cc12	?	?
105	Clc1ccccc1CSc1nnc([C@@H]2CCCN2)o1	-12%	-6%
106	NC(=O)c1c(NC(=O)c2ccccc2)sc2c1CCN(Cc1ccccc1)C2	3%	-10%
107	COc1ccccc1/C=C/C=N/N1CCN(Cc2cccc3ccccc23)CC1	?	0%
108	COc1cccc(NC(=O)c2nn(C)cc2Br)c1	-16%	-10%

Assay outcomes (PubChem)
